From PubChem
MT1-MMP act inh: blockers of MT1-MMP proenzyme processing, primary screen, HT1080 RFP-PRO-GFP cells, GFP/RFP fluorescence. Matrix metalloproteinase-14 (Homo sapiens), P50281. GFP/RFP ratio fluorescence, overnight; percent of plate control window, DMSO zero. GFP/RFP ratio change, % at 20 µM. actives 0.061% (n = 360,000);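 active = GFP/RFP ratio change of at least 30% with cell ATP level not reduced by more than half and red fluorescence within 50% of control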; note: strong numbers were not always called active
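Test system: HT1080 cells expressing an RFP-PRO-GFP fluorescent reporter construct / Compound dosing: single-point 20 µM compound, 1% DMSO / Schedule: cells overnight before dosing, compound overnight, 37 °C, 5% CO2 / Evaluation: GFP/RFP fluorescence ratio / Control set: DMSO and RFP-L50D-GFP cell wells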
Rce1 inh: yeast Rce1p protease inhibitors, primary screen, biochemical, fluorescence, cell-free homogeneous | AID 2563, 2010 | actives 0.27% (n = 290,000) | yeast membranes, quenched prenylated peptide cleavage fluorescence | calls only | CAAX prenyl protease 2 (Saccharomyces cerevisiae (strain ATCC 204508 / S288c)), Q03530;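 active = fall in fluorescence gain of 50% or more versus controls, with final raw signal at or below 3038400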;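 note: plate controls were neutral control wells for no effect and wells lacking membranes for full effect; tested at 10 µM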
Target sequence (Q03530 whole entry, looked up): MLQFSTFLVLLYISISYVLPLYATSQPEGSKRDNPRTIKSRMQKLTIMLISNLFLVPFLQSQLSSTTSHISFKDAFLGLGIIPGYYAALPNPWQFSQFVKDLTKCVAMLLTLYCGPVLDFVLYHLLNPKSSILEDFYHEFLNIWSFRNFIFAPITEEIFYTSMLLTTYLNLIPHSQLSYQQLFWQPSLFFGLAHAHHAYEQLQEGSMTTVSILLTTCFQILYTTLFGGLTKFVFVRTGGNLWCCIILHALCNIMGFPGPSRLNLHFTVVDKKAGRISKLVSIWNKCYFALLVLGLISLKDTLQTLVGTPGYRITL
CSC inhib: cancer stem cell viability inhibitors, primary screen, luminescence | actives 1.1% (n = 300,000) | AID 2717, 2010 | inhibition, % at 7.5 µM | cancer stem cell-like cells viability;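 active = mean at 75% or more and at least half the replicates too; tested in HMLE shEcad cells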;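 note: 0% = median of negative and 100% = median of positive control wells; the first replicate is given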
HIV Env fusion: inhibitors of HIV-1 Env-driven cell-cell fusion, primary screen, HeLa-JRFL effector, CEM21 target cells, luciferase | actives 1.1% (n = 360,000) | AID 651610, 2012 | inhibition, % at 12.3 µM;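 active = mean replicate inhibition score of at least 50 and every replicate individually at or above 50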;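 note: 0% = plate neutral controls and 100% = maraviroc near 300 nM; one replicate is shown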
UUG fidelity: modulators of yeast start codon fidelity, primary screen, whole organism, S. cerevisiae, single point, plate reader | S. cerevisiae UUG-firefly luciferase reporter, luminescence/redox ratio | actives 0.13% (n = 350,000) | activity score, % at 18.7 µM;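 active = replicate mean at a twofold rise or more, about +100% in these data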;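 note: firefly luciferase made from a UUG start codon reports start codon fidelity; reporter light over untreated wells divided by growth signal over untreated wells; some hits fall short of that in this replicate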
eIF4H inh: human eIF4H binding inhibitors, primary screen, translation initiation inhibitor project, biochemical, uHTS, fluorescence polarization. Eukaryotic translation initiation factor 4H (Homo sapiens), Q15056. inhibition, % at 35 µM. AID 2012, 2009. eIF4H fluorescence polarization binding assay. actives 0.94% (n = 290,000);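 active = 50% or more with normal probe brightness, or confirmed in later tests; about a fifth of its hits are not listed in these tables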;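 note: calls also rest on retests at 20 µM and on dose response follow-up; 0% = protein and probe with vehicle and 100% = probe without protein; strong numbers were not always called active; many hits fall short of the cut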
PABP polyA inh: PABP poly(A) RNA binding inhibitors, primary screen, biochemical, fluorescence polarization, uHTS; inhibition, % at 35 µM; actives 1% (n = 290,000); AID 2014, 2009;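 active = 50% or more with normal probe brightness, or confirmed in later tests; about a fifth of its hits are not listed in these tables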;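 note: calls also rest on retests at 20 µM and on dose response follow-up; controls were probe without protein and protein plus probe with vehicle; some compounds called inactive have numbers as strong as hits; many hits fall short of the cut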
eIF4H inh retest: second read-out of eIF4H inh, no call of its own (marks repeat the call); inhibition, %; compound at 20 µM; confirmation average;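 mean of two retest wells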
PABP polyA inh retest: also measured in PABP polyA inh; calls as there; inhibition, %; compound at 20 µM; confirmation repeats;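 mean of two retest wells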
MT1-MMP act inh RFP: recorded beside MT1-MMP act inh, whose call it bears; RFP signal change, %; measured here: RFP expression control read;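 0 = vehicle wells; hits needed this value within 50% of zero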
Numbers without * were called inactive; i = inactive; . = no result given; & = joins results of further samples; [ ] = remark or other dose. Random draw from the library. About 2.9% of those tested had a hit in this group.

SMILES | MT1-MMP act inh | MT1-MMP act inh RFP | Rce1 inh | CSC inhib | HIV Env fusion | UUG fidelity | eIF4H inh | PABP polyA inh | others
COc1cccc(CN2CCN(C(=O)c3ccco3)CC2)c1OC | 0 | 4 | i | -12 | . | . | . | .
c1ccc(OCc2nn3c(Cn4nnc5ccccc54)nnc3s2)cc1 | 0 | -5 | i | -12 | -16 | -16 | 6 | 11
Cc1ccc(NC(=O)C2CCN(C(=O)c3ccc(Cl)cc3)CC2)nc1 | -5 | -14 | i | 7 | -6 | -20 | . | .
COC(=O)c1c(-c2cccc3ccccc23)csc1NC(=O)Cc1ccc(OC)c(OC)c1 | -24 | -26 | i | 37 | . | -6 | -17 | -16
N#Cc1cc2c(nc1SCC(=O)Nc1sc3c(c1C#N)CCC3)CCC2 | -45 | -1 | i | 0 | -205 | -33 | -2 | 1
CC(=O)Nc1ccc(S(=O)(=O)N2CCN(C34CC5CC(CC(C5)C3)C4)CC2)cc1 | 3 | -1 | i | -12 | . | -12 | -2 | 0
CC(/C=N\N1CCN(Cc2ccc(C)cc2)CC1)=C\c1ccccc1 | 0 | -1 | i | 27 | 29 | . | 6 | 10
Cc1oc(-c2ccccc2)cc1C(=O)Nc1cccc(C(=O)O)c1 | 3 | -1 | i | -1 | -25 | 11 | 0 | 6
CCCCn1c(N)c(N(CCOC)C(=O)CSc2nnc(-c3ccc(C(C)(C)C)cc3)n2N)c(=O)[nH]c1=O | 5 | -2 | i | -8 | -10 | . | . | .
Cc1ccc(C)c(/C=C/C(=O)c2ccccc(=O)c2O)c1 | -19 | -18 | i | 92* | -2 | -35 | 91 | -2 | eIF4H inh retest=2;PABP polyA inh retest=-3
Cc1onc(NC(=O)NC(=O)c2c(F)cccc2Cl)c1Br | 0 | -3 | i | -11 | -108 | -8 | -8 | -11
CSC1=NC(C)(C)C=C(/C=C/c2c(Cl)cccc2Cl)N1 | -1 | -4 | i | 71 | 7 | . | 19 | 25
OCCN1CCN(C(=S)NCCc2ccccc2)CC1 | 4 | 7 | i | -6 | -232 | -27 | 4 | -12
OC[C@@H](O)[C@@H](O[C@@H]1O[C@H](CO)[C@H](O)[C@H](O)[C@H]1O)[C@H](O)[C@@H](O)CO | 0 | 5 | i | 17 | 20 | -18 | . | .
CCOCCCNC(=O)C(c1ccc(Cl)cc1)N(Cc1cccs1)C(=O)CNC(C)=O (stereo unspecified) | 7 | 7 | i | -2 | -46 | 8 | -4 | 0
COc1ccc(CCNC(=O)c2ccc(NS(=O)(=O)c3ccc4[nH]c(=O)[nH]c4c3)cc2)cc1OC | 1 | 4 | i | 2 | -26 | -10 | 2 | 4
Cc1cc(C)c2nc(NNC(=O)c3cc(=O)c4ccccc4o3)sc2c1 | -1 | 3 | i | 79* | -42 | -24 | 3 | -6
O=C(O)Cc1coc(-c2ccc(F)cc2)n1 | -3 | 0 | i | -3 | . | -24 | -2 | -6
CNS(=O)(=O)c1ccc(CCC(=O)N2CCN(c3ccccc3OC)CC2)cc1 | 2 | -5 | i | -14 | -3 | 2 | 4 | 5
Cc1nc(N2CCN(C)CC2)c2sc(=S)n(C)c2n1 | 1 | -2 | i | -18 | . | -19 | -13 | -12
CN(C1CCCCC1)S(=O)(=O)c1cccc(C#N)c1 | 5 | -1 | . | -5 | 8 | . | -2 | 6
COCCn1nnnc1C(c1cccc(OC)c1OC)N1CCN(C2CCCCC2)CC1 (stereo unspecified) | -4 | -1 | i | -3 | . | -7 | -5 | -4
c1ccc(N2CCN(c3nnc(Cc4cccnc4)c4ccccc34)CC2)nc1 | 0 | -1 | i | -2 | -6 | -5 | -6 | -8
c1ccc(CN=C2NN=C(c3cc4ccccc4o3)CS2)cc1 | -2 | -1 | i | 2 | 5 | . | -5 | -1
COc1ccc(OC)c(C(=O)Nc2c(O)ccc3ccccc23)c1 | 5 | 8 | i | 0 | 6 | . | . | .
O=C(Cc1ccc(Cl)cc1)Nc1cccc(-c2nnc(-c3ccco3)o2)c1 | 7 | -7 | i | 17 | -1 | -17 | -6 | -4
CC1SCC(=O)N(CC(=O)Nc2ccc3c(c2)OCO3)C1=O (stereo unspecified) | 1 | 3 | i | -7 | -4 | -6 | -5 | 3
CCOC(=O)C1=C(COC(=O)CNC(=O)c2cccc(C)c2)NC(=O)NC1C (stereo unspecified) | 0 | 4 | i | 4 | 3 | . | . | .
Cc1ccc(NCc2ccc(C)s2)cc1 | . | . | i | -2 | . | . | 8 | 18
CN1CCN(C(=O)c2cc(COc3ccccc3)on2)[C@@H](c2ccccc2)C1 | 2 | -1 | i | -8 | . | -10 | -1 | 1
CC1=C(C)C(OCCCl)N(c2cc(O)c(Cl)cc2F)C1=O (stereo unspecified) | 0 | 1 | i | 6 | 7 | . | -1 | 3
CN(C(=O)CSc1nc2ccc(Br)cc2c(=O)n1Cc1ccco1)C1CCS(=O)(=O)C1 (stereo unspecified) | -3 | -9 | i | 21 | 8 | -4 | 0 | -1
Cc1ccc(NC(=O)OCc2cn(-c3ccc(Cl)cc3)nn2)cc1 | -5 | -4 | i | -14 | -35 | -10 | -7 | -1
CCCCc1ccc(NC(=S)Nc2cccnc2)cc1 | -2 | 0 | i | -16 | -4 | . | 44 | 29
O=C(CSc1ncnc2ccccc12)Nc1ccc2c(c1)OCO2 | 1 | 1 | i | 14 | 16 | 12 | -5 | 2
O=C(NC(c1ccc(Cl)cc1)c1cnccn1)C1CCN(CCOc2ccc(F)cc2)CC1 (stereo unspecified) | 1 | 2 | . | . | -2 | 7 | . | .
CCNc1nc(CC)nc2c1oc1ccccc12 | 0 | 0 | i | 5 | -26 | . | 14 | 7
CCOc1ccc(C(=O)N2CCc3cc(OC)c(OC)cc3C2)cc1OCC | 2 | -4 | i | -4 | -9 | -7 | -13 | -6
CNc1nc(Cl)c(SC)c(NCc2ccc(F)cc2)n1 | -6 | -7 | i | -2 | 12 | -8 | 6 | 1
CCCCn1c2nc3ccccc3nc2c2c(=O)n(CC(C)C)cnc21 | 1 | 1 | . | . | 12 | -9 | . | .
O=CN(Cc1nc2ccccc2[nH]1)c1ccc(C(=O)O)cc1 | 3 | 2 | . | . | -5 | -27 | . | .
Cc1ccc(S(=O)(=O)NC(=O)Nc2ccccc2)cc1 | 2 | 5 | i | 13 | 2 | . | -11 | 4
CCc1ccc2c(CN3CCN(Cc4ccccc4)CC3)cc(=O)oc2c1 | 4 | 4 | i | 39 | 20 | -6 | 7 | 6
COc1ccc(-c2csc(NC(=O)C3CCN(c4ncnc5sc(C)c(C)c45)CC3)n2)cc1OC | 0 | -34 | i | 27 | . | -22 | . | .
O=c1[nH]c(=O)n(Cc2ccco2)c2c1C(C(F)(F)F)(C(F)(F)F)N=C(CCc1ccccc1)N2 | -57 | -42 | i | -8 | 19 | -6 | 3 | -2
COc1ccc(C(=O)Nc2ccc(C)cn2)cc1S(=O)(=O)N1CCCc2ccccc21 | 4 | -7 | i | -10 | 0 | 1 | . | .
Cc1ccc(N2CC(C(=O)Nc3ccc(S(=O)(=O)Nc4nccs4)cc3)CC2=O)cc1 (stereo unspecified) | 0 | 5 | i | -6 | -10 | -4 | 3 | -14
Cc1nnc(C)n1/N=C/c1cccn1C | 5 | 6 | i | -15 | . | -27 | -9 | 10
CC(C)n1cnc2c(NCc3ccc(S(N)(=O)=O)cc3)nc(NCc3ccc(S(N)(=O)=O)cc3)nc21 | -1 | 2 | i | 15 | -2 | -19 | 6 | 17
O=C(O)C1=C[C@H](c2csc3ccccc23)C[C@H](OCCCCO)O1 | 0 | 4 | i | -7 | -1[16.7 µM] | 20&3 | -7 | 1
COc1ccc(OCc2ccc(/C=N\NC(=O)c3sccc3C)o2)cc1 | -4 | -1 | i | -12 | -26 | -8 | -6 | -4
Clc1ccccc1/C=C/C=N/Nc1nc(N2CCOCC2)nc(N2CCOCC2)n1 | 1 | -1 | i | -9 | 23 | -17 | -2 | -14
O=C(NCCCN1CCOCC1)C(=O)N/N=C/c1ccccc1 | 0 | 8 | i | -7 | -20 | . | -20 | -6
O=Cc1c(Cl)nc2ccccn2c1=O | -4 | 6 | i | 3 | 22 | . | 28 | 30
COc1ccc(C(=O)NCc2ccc3c(c2)OCO3)c(OC)c1 | -3 | -1 | i | -3 | 3 | 19 | 5 | 1
CC(=O)Nc1ccc(S(=O)(=O)NCC(=O)OCC(=O)N2CC(C)OC(C)C2)cc1 (stereo unspecified) | 1 | 4 | . | -15 | -21 | 8 | . | .
C=CCn1c(SCC(=O)Nc2ccccc2)nc2scc(-c3cccs3)c2c1=O | -11 | -5 | i | -10 | . | -16 | 6 | 19
CCN(CC)C(=O)CSc1ncnc2sc(-c3ccccc3)cc12 | 8 | -12 | . | 16 | 28 | -10 | 12 | -11
Nc1nonc1C(=O)N/N=C\c1cc2c(cc1Cl)OCO2 | 0 | -1 | i | 2 | -3 | -6 | 28 | -10
